Vaccinia stage: Vaccinia orthopox stage-specific inhibition. Vaccinia-infected cells, mCherry/Venus stage reporter fluorescence; hits give low values; some inactives read as strong as hits. activity change (mCherry), % (no concentration beside the values). 89,000 compounds, 0.01% hits. AID 1053133;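 active = mCherry past -33% and 40 or more points under the early reporter, replicates agreeing; inconclusive = past -33% without that gap or agreement; tested in A549 cells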;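 also: scaled between vehicle wells and reference inhibitor wells; 23 nL library stock went into each well; one replicate is shown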
Vaccinia stage Venus: recorded beside Vaccinia stage, whose call it bears; activity change (Venus), %; measured here: Venus reporter, other viral stage;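 negative = less Venus signal; first of two replicates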
Starred values were filed as active, the others as inactive; ? = inconclusive; / = not tested or not shown; & = joins results of further samples. An excerpt; count on the stated rates, not on these rows.

SMILES | Vaccinia stage | Vaccinia stage Venus
Cc1noc(C)c1S(=O)(=O)N(C)C[C@H]1Oc2ccc(NC(=O)CCCCCC(=O)Nc3ccccc3N)cc2CC(=O)N([C@@H](C)CO)C[C@H]1C | 11.5 | 9.9
O=C(NC1CCCC1)N[C@H]1C=C[C@H](CC(=O)N2CCOCC2)O[C@@H]1CO | -13.1 | 10.8
CC(C)NC(=O)Nc1cccc2c1O[C@@H](CN(C)C(=O)Nc1ccc(C(F)(F)F)cc1)[C@@H](C)CN([C@@H](C)CO)C2=O | -15.8 | -9.8
C/C=C/c1cnc2c(c1)C(=O)N([C@@H](C)CO)C[C@@H](C)[C@@H](CN(C)Cc1ccncc1)O2 | 22.8 | 7.5
Cc1noc(C)c1S(=O)(=O)N(C)C[C@@H]1Oc2ccc(NC(=O)CCCCCC(=O)Nc3ccccc3N)cc2CC(=O)N([C@H](C)CO)C[C@@H]1C | 23.7 | 9.5
CC(C)C#Cc1cnc2c(c1)C(=O)N([C@@H](C)CO)C[C@@H](C)[C@H](CN(C)C(=O)c1ccccn1)O2 | 38.8 | 18.2
C[C@@H]1CCCCO[C@@H](CN(C)Cc2ccc(C(F)(F)F)cc2)[C@H](C)CN([C@@H](C)CO)C(=O)c2cc(NS(=O)(=O)c3ccc(F)cc3)ccc2O1 | ? | /
COc1ccc(C#Cc2cnc3c(c2)C(=O)N([C@H](C)CO)C[C@H](C)[C@H](CN(C)CC2CCOCC2)O3)cc1 | -12.7 | -5.8
CO[C@@H]1CN(C)C(=O)c2ccc(NC(=O)C3CCOCC3)cc2OC[C@@H](C)N(CC2CC2)C[C@@H]1C | 20.5 | 15.2
C[C@@H]1CN([C@@H](C)CO)C(=O)c2cc(NS(C)(=O)=O)ccc2O[C@H]1CN(C)C(=O)Nc1ccc2c(c1)OCO2 | 24.7 | 16.2
C[C@@H]1CN([C@H](C)CO)C(=O)c2cccc(NC(=O)c3ccc(-c4nccs4)cc3)c2O[C@@H]1CN(C)C(=O)Nc1ccc(F)cc1 | -17.1 | -11.7
Cc1noc(C)c1NC(=O)Nc1ccc2c(c1)C(=O)N([C@H](C)CO)C[C@@H](C)[C@@H](CN(C)C(=O)Nc1ccccc1)OCCCC[C@@H](C)O2 | 26.2 | 13.6
COc1cccc(C(=O)Nc2ccc3c(c2)C(=O)N(C)C[C@H](OC)[C@H](C)CN(C)[C@@H](C)CO3)c1 | -3.2 | 5.9
CC(C)NC(=O)Nc1ccc2c(c1)C(=O)N([C@@H](C)CO)C[C@@H](C)[C@@H](CN(C)S(=O)(=O)c1cn(C)cn1)O2 | 13.3 | -3.4
CNC[C@@H]1Oc2ccc(NC(=O)Nc3ccccc3)cc2C(=O)N([C@H](C)CO)C[C@H]1C | 6.6 | 0.7
C[C@H]1CCCCO[C@H](CN(C)S(=O)(=O)c2ccccc2)[C@@H](C)CN([C@@H](C)CO)C(=O)c2cc(NS(=O)(=O)c3cccs3)ccc2O1 | -27.3 | -22.7
C[C@@H]1CN([C@@H](C)CO)C(=O)c2cccc(NC(=O)C3CCOCC3)c2O[C@H]1CN(C)C(=O)Nc1ccccc1 | 8.5 | 2.2
O=C(C[C@H]1CC[C@H]2[C@@H](COC[C@@H](O)CN2Cc2ccc(Oc3ccccc3)cc2)O1)N1CCc2ccccc2C1 | ? | /
C[C@@H]1CN([C@H](C)CO)S(=O)(=O)c2ccc(C#Cc3ccncc3)cc2O[C@H]1CN(C)S(=O)(=O)c1ccc(F)cc1 | -4.6 | -1.2
COc1ccccc1C(=O)Nc1ccc2c(c1)C(=O)N(C)C[C@H](OC)[C@H](C)CN(C(C)=O)[C@@H](C)CO2 | 12.0 | 12.5
Cc1ccc(S(=O)(=O)Nc2ccc3c(c2)CC(=O)N([C@@H](C)CO)C[C@H](C)[C@H](CN(C)Cc2ccc(C(=O)Nc4ccccc4N)cc2)O3)cc1 | -15.7 | -13.1
C[C@@H]1CN([C@@H](C)CO)C(=O)c2cccc(NC(=O)Nc3ccc4c(c3)OCO4)c2O[C@H]1CN(C)Cc1ccccc1 | -9.2 | -8.5
N#C[C@H]1[C@@H](c2ccccc2-c2cccc(F)c2)[C@H](CO)N1C(=O)c1cccnc1 | -3.1 | 1.1
Cc1cccc(S(=O)(=O)N(C)C[C@@H]2OCc3cnnn3CCCC(=O)N([C@H](C)CO)C[C@H]2C)c1 | 2.3 | 7.8
C[C@@H]1CN([C@H](C)CO)C(=O)c2cc(NC(=O)c3ccccc3)ccc2O[C@@H](C)CCCCO[C@H]1CN(C)C(=O)c1ccccc1 | -18.5 | -23.1

(listing goes on)
SMILES | Vaccinia stage | Vaccinia stage Venus
CCN1[C@H](C(=O)NC2CCC2)[C@@H](CO)[C@@H]2Cn3c(ccc(-c4ccc(F)cc4)c3=O)[C@@H]21 | 14.0 | 17.6
C[C@@H]1CN([C@@H](C)CO)C(=O)c2ccccc2-c2ccccc2CO[C@@H]1CN(C)S(=O)(=O)c1ccc(F)cc1 | -2.3 | 5.6
N#C[C@H]1[C@@H](c2ccccc2C2=CCCC2)[C@@H](CO)N1C(=O)NC1CCCC1 | -13.5 | -8.1
C[C@@H]1CN([C@H](C)CO)C(=O)c2cc(NC(=O)Nc3ccc4c(c3)OCO4)ccc2O[C@H]1CN(C)S(=O)(=O)c1ccc(F)cc1 | 6.2 | 9.0
CO[C@@H]1CN(C)C(=O)c2ccc(NC(=O)Nc3ccccc3)cc2OC[C@@H](C)N(C(C)=O)C[C@@H]1C | 9.0 | 12.5
C[C@@H]1CN([C@H](C)CO)C(=O)Cc2cc(NC(=O)CCC(F)(F)F)ccc2O[C@@H]1CN(C)C(=O)Nc1ccccc1 | -2.0 | 6.3
O=C(C[C@H]1C=C[C@@H](NC(=O)CN2CCOCC2)[C@H](CO)O1)NC1CCCCC1 | 7.7 | 3.5
Cn1cnc(S(=O)(=O)N2CC[C@@H]3[C@H](CO)Nc4ccc(-c5cccc(F)c5)cc4[C@@H]32)c1 | -30.6 | -24.2
COc1cccc(CN2[C@@H](CO)[C@H](c3ccccc3)C23CN(C(=O)C2CCCC2)C3)c1 | 0.4 | 1.0
CCNC(=O)C[C@@H]1CC[C@H]2[C@H](COc3ccc(NC(=O)Nc4ccccc4OC)cc3C(=O)N2C)O1 | 2.0 | 9.1
Cc1noc(C)c1NC(=O)Nc1ccc2c(c1)C(=O)N([C@H](C)CO)C[C@@H](C)[C@@H](CN(C)Cc1ccc3c(c1)OCO3)OCCCC[C@H](C)O2 | 7.4 | 12.9
COCC(=O)N1C[C@H]2[C@@H](c3ccccc31)[C@@H](CO)N2C(=O)NC(C)C | 19.7 | 18.5
O=C(Cc1ccccn1)NCC[C@H]1CC[C@H](NC(=O)Nc2ccc(C(F)(F)F)cc2)[C@@H](CO)O1 | -8.6 | -3.5
O=C(C[C@@H]1CC[C@@H]2[C@H](COC[C@H](O)CN2Cc2cc(F)ccc2F)O1)N[C@@H]1CCN(Cc2ccccc2)C1 | ? | /
OC[C@@H]1[C@@H]2c3ccccc3NC[C@@H]2N1CC1CCCCC1 | 2.4 | 7.7
O=C(c1ccncc1)N1C[C@@H]2[C@H](c3ccccc31)[C@@H](CO)N2C(=O)Nc1ccccc1Cl | 15.4 | 10.3
C[C@@H]1CN([C@@H](C)CO)S(=O)(=O)c2ccc(/C=C/c3ccccc3)cc2O[C@@H]1CN(C)C(=O)c1ccc2c(c1)OCO2 | ? | /
COc1ccc(-c2cnc3c(c2)C(=O)N([C@H](C)CO)C[C@H](C)[C@@H](CN(C)C(=O)CN(C)C)O3)cc1 | 10.3 | 13.5
CC(C)C#Cc1ccc2c(c1)O[C@@H](CN(C)S(=O)(=O)c1cn(C)cn1)[C@@H](C)CN([C@H](C)CO)S2(=O)=O | 11.9&4.3 | 10.3&-7.4
O=C(C[C@@H]1C[C@H]2c3cc(NC(=O)Nc4ccccc4)ccc3O[C@H]2[C@@H](CO)O1)NCc1ccccc1 | -16.7 | -11.7
O=C(C1CCOCC1)N1CC(=O)N2[C@H](C1)[C@H](c1ccc(C#CC3CC3)cc1)[C@@H]2CO | 0.7 | 0.9
C[C@H]1CN([C@@H](C)CO)C(=O)Cc2cc(NC(=O)CCCCCC(=O)Nc3ccccc3N)ccc2O[C@H]1CN(C)Cc1ccncc1 | -2.9 | -2.3
C[C@@H]1CN([C@H](C)CO)C(=O)Cc2cc(NC(=O)Cc3ccccc3)ccc2O[C@@H]1CN(C)Cc1ccncc1 | 8.9 | 12.7
COc1ccccc1NC(=O)N1C[C@H]2[C@@H](c3ccccc31)[C@H](CO)N2C(=O)c1ccccc1 | -3.1 | 0.4
CCCN1[C@@H]2Cn3c(ccc(-c4ccccc4F)c3=O)[C@H]1[C@@H](C(=O)NCC)[C@@H]2CO | 13.2 | 12.0

3 structures from above, arranged by SMILES length, lowest first.
SMILES | Vaccinia stage | Vaccinia stage Venus
O=C(C1CCOCC1)N1CC(=O)N2[C@H](C1)[C@H](c1ccc(C#CC3CC3)cc1)[C@@H]2CO | 0.7 | 0.9
CO[C@@H]1CN(C)C(=O)c2ccc(NC(=O)Nc3ccccc3)cc2OC[C@@H](C)N(C(C)=O)C[C@@H]1C | 9.0 | 12.5
COc1ccc(-c2cnc3c(c2)C(=O)N([C@H](C)CO)C[C@H](C)[C@@H](CN(C)C(=O)CN(C)C)O3)cc1 | 10.3 | 13.5

Continuation.
SMILES | Vaccinia stage | Vaccinia stage Venus
CO[C@H]1CN(C)C(=O)c2ccc(NC(=O)Cc3ccccc3)cc2OC[C@@H](C)N(CC2CC2)C[C@@H]1C | 2.0 | -4.4
C[C@@H]1CN([C@H](C)CO)C(=O)c2cc(NC(=O)Cc3cn(C)c4ccccc34)ccc2O[C@H]1CN(C)CC1CCCCC1 | ? | /
C[C@H](CO)N1C[C@H](C)[C@@H](CN(C)Cc2ccccn2)Oc2ncc(C#CC(C)(C)O)cc2C1=O | -14.8 | -7.7
C[C@H](NC(=O)C[C@H]1CC[C@@H]2[C@H](COC[C@H](O)CN2Cc2cc(F)ccc2F)O1)c1ccccc1 | -4.0 | -5.6
C[C@@H]1CCCCO[C@H](CN(C)C(=O)c2ccncc2)[C@H](C)CN([C@H](C)CO)C(=O)c2cc(NS(=O)(=O)c3cn(C)cn3)ccc2O1 | 22.6 | 10.2
CC(C)C#Cc1ccc2c(c1)O[C@H](CN(C)Cc1ccccn1)[C@H](C)CN([C@H](C)CO)S2(=O)=O | -12.3 | -3.8
Cc1noc(C)c1S(=O)(=O)Nc1ccc2c(c1)C(=O)N([C@@H](C)CO)C[C@H](C)[C@H](CN(C)C(=O)Nc1ccc3c(c1)OCO3)O2 | -3.2 | -2.3
C[C@H]1CN([C@@H](C)CO)C(=O)c2cc(NS(=O)(=O)c3cccs3)ccc2O[C@@H]1CN(C)C(=O)Nc1ccc(F)cc1 | 9.8 | 0.6
O=C(c1ccccc1F)N1C[C@H]2O[C@@H](CNS(=O)(=O)c3ccccc3)CC[C@H]21 | 14.2 | 12.7
COc1ccc(S(=O)(=O)Nc2ccc3c(c2)CC(=O)N([C@@H](C)CO)C[C@H](C)[C@H](CN(C)Cc2ccc(C(=O)O)cc2)O3)cc1 | -3.2 | 9.8
CCNC(=O)[C@@H]1[C@@H](CO)[C@@H]2Cn3c(ccc(-c4ccccc4F)c3=O)[C@@H]2N1C | 1.9 | 2.5
COc1ccc(S(=O)(=O)Nc2ccc3c(c2)CC(=O)N([C@H](C)CO)C[C@H](C)[C@H](CN(C)S(=O)(=O)c2cccs2)O3)cc1 | 1.5 | -2.1
O=C(NC1CCCCC1)N[C@H]1CC[C@H](CCNS(=O)(=O)c2ccc(Cl)cc2)O[C@H]1CO | -4.3 | 4.3
C[C@H](CO)N1C[C@H](C)[C@@H](CN(C)CC2CCCCC2)Oc2ccc(NC(=O)Nc3ccc(F)cc3)cc2C1=O | -23.6 | -20.3
COCCNC(=O)C[C@@H]1C[C@H]2c3cc(NC(=O)Nc4ccccc4)ccc3O[C@H]2[C@@H](CO)O1 | 18.1 | 7.6
O=C(NCc1nc2ccccc2[nH]1)C1=C[C@@H](c2coc3ccccc3c2=O)C[C@@H](OCCCCO)O1 | 6.2 | -2.3
C[C@H](CO)N1C[C@H](C)[C@@H](CN(C)S(=O)(=O)c2ccc(Cl)cc2)OCCCC[C@H](C)Oc2ccc(NS(=O)(=O)c3cn(C)cn3)cc2C1=O | -1.1 | -4.6
COCC(=O)N1C[C@@H](C)[C@H](OC)CN(C)C(=O)c2ccc(NC(=O)c3cnccn3)cc2OC[C@@H]1C | 13.4 | 8.5
COc1ccccc1CN1[C@@H](CO)[C@@H](c2ccccc2)C12CN(C(C)=O)C2 | 2.4 | 5.0
CC(C)NC(=O)Nc1ccc2c(c1)C(=O)N([C@@H](C)CO)C[C@H](C)[C@H](CN(C)C(=O)Nc1ccc(F)cc1)O2 | 0.2 | 3.7
COc1ccc(S(=O)(=O)Nc2ccc3c(c2)CC(=O)N([C@@H](C)CO)C[C@@H](C)[C@H](CN(C)CC2CC2)O3)cc1 | -4.1&8.1 | -3.7&-2.9
C=C[C@@H](CO)NS(=O)(=O)c1ccc(Br)cc1 | 18.1 | 7.5
C[C@@H]1CN([C@H](C)CO)C(=O)c2cccc(NC(=O)C3CCOCC3)c2O[C@@H]1CN(C)Cc1ccccc1 | 1.3 | -0.7
C[C@H]1CN([C@@H](C)CO)S(=O)(=O)c2ccc(-c3cccc(F)c3)cc2O[C@H]1CN(C)C(=O)Nc1cc(F)ccc1F | ? | /
C[C@H](CO)N1C[C@H](C)[C@H](CN(C)S(=O)(=O)c2cn(C)cn2)OCc2ccccc2-c2c(n(C)c3ccccc23)C1=O | 8.1 | -0.9
CCS(=O)(=O)Nc1ccc2c(c1)C(=O)N(C)[C@@H]1CC[C@H](CC(=O)N3CCN(C)CC3)O[C@H]1CO2 | 4.8 | 8.4

In the list so far, two contain a cyano group:
SMILES | Vaccinia stage | Vaccinia stage Venus
N#C[C@H]1[C@@H](c2ccccc2-c2cccc(F)c2)[C@H](CO)N1C(=O)c1cccnc1 | -3.1 | 1.1
N#C[C@H]1[C@@H](c2ccccc2C2=CCCC2)[C@@H](CO)N1C(=O)NC1CCCC1 | -13.5 | -8.1
